MLL AF4-AF9 inh: inhibitors of AF4 peptide binding to AF9, primary screen, biochemical, AlphaScreen, biotin-AF4 peptide, FLAG-AF9, single point; Protein AF-9 (Homo sapiens), P42568; inhibition, % at 10 µM; hit rate 0.47% among 350,000; AID 651704, 2012;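 active means every replicate reaching a set inhibition limit, whatever the replicate mean, cut at about 25% in these data; inconclusive means mean inhibition reaches that limit but some replicates miss it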;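 further: 0% = plate neutral control median and 100% = total signal loss; the record names both 10 and 1 µM as test concentration; the first replicate is given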
Target sequence (P42568 whole entry, looked up): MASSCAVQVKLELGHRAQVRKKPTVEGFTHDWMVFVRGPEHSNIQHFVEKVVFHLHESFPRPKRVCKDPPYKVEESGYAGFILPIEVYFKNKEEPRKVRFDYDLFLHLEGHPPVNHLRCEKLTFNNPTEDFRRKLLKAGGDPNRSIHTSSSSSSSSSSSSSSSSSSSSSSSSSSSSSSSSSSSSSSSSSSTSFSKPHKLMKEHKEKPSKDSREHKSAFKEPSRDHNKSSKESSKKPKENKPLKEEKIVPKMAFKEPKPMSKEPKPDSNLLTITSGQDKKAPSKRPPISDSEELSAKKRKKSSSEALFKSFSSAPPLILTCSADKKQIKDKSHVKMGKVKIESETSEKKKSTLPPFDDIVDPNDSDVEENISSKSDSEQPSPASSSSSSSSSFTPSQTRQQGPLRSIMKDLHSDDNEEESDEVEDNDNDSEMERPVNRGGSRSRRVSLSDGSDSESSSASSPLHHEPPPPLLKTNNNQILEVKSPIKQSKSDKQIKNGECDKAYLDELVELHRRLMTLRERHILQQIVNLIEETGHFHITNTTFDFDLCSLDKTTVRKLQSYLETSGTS
Vif TR-FRET: inhibitors of Vif binding to APOBEC3G peptide, primary screen, biochemical, TR-FRET, GST-Vif 1-94, biotin-A3G peptide, dose response retest (AID 1117319); Virion infectivity factor (Human immunodeficiency virus type 1 group M subtype B (isolate …; TR-FRET GST-Vif / biotin-A3G peptide binding; higher % means a stronger effect; test concentration not given here; strong numbers were not always called active; inhibition, %; hits with a dose series show IC50 in µM; hit rate 0.57% among 260,000;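 active means above the screen mean plus three standard deviations and confirmed in dose response; inconclusive means results disagree or hit not tested in dose response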;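 further: Vif residues 1-94 fused to GST binding biotinylated APOBEC3G peptide 110-148; 0% = full assay without inhibitor and 100% = GST in place of GST-Vif; retest series ran down from 100 µM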
Bfl-1 A1 inh: caspase 3/7 activation in MEF A1-2A-BIM cells, primary screen, A1 inhibitor project, cell-based, luminescence, HTS; Caspase-Glo 3/7 luminescence, 3 h; percent of clofoctol response, vehicle zero; caspase activation, % (concentration not given with the values); hit rate 0.066% among 330,000;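 active means over half of replicate activation scores above 10%, or exactly half above 10 with the replicate mean above 10; inconclusive means replicate mean below 10 yet half the replicates above 10; inactive means over half of replicates below 10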;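 further: wells of about 30 µL received 50 nL stock; many hits fall short of the cut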
LANA-H2A inh: blockers of LANA interaction with H2A/H2B – biochemical, FP readout, HTS, primary screen | Protein LANA1 (Human herpesvirus 8 type P (isolate GK18)), Q9QR71 | cell-free LANA-H2A/H2B peptide, fluorescence polarization | inhibition, % (concentration not given with the values) | hit rate 0.6% among 320,000 | AID 2629, 2010; in the data active means inhibition mostly above about 10%, no sharp cut-off; inactive means mostly below about 6.7%;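 further: stock transfer was 7.5 nL into about 10 µL; 0% = median of vehicle wells and 100% = median of positive control wells; one replicate is shown; the record names a cut of 25% in any replicate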
RanGTP-Impb inh: inhibitors of RanGTP-importin-beta interaction, primary screen, biochemical, FRET, CFP-Ran, YFP-importin-beta, homogeneous; cell-free CFP-Ran/YFP-importin-beta FRET ratio; AID 2216, 2009; inhibition, % (test concentration not listed); Ran GTPase (GTP-bound) - importin-beta complex; hit rate 1.1% among 300,000;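 active means most replicates above 15%; inconclusive means exactly half above 15%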;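 further: 0% = DMSO wells and 100% = Ran loaded with GDP instead of GTP; wells of about 40 µL received 100 nL stock; the first replicate is given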
Calb FLC: C. albicans growth inhibition with fluconazole, primary screen, CaCi-2 strain, Alamar Blue fluorescence | C. albicans CaCi-2 (fluconazole-resistant clinical isolate) + fluconazole, 48 h | hit rate 0.57% among 300,000 | AID 1979, 2009 | growth inhibition, % (concentration not given with the values);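 active means most replicates above 75%; inconclusive means exactly half above 75%; inactive means most below 75%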;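 further: all wells also contain fluconazole at 8 µg/ml as a sub-toxic cotreatment; 0% = median of DMSO wells and 100% = median of geldanamycin control wells; wells of about 8 µL received 7.5 nL stock; the first replicate is given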
T cruzi repl: inhibitors of intracellular T. cruzi growth, primary screen, luminescence, NIH3T3 host cells | T. cruzi beta-gal in NIH3T3, 90 h | inhibition, % (test concentration not listed) | AID 1885, 2009 | hit rate 1.4% among 300,000;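 active means mean inhibition across valid replicates above about 55%, limit read from the data; inconclusive means mean below that limit but half or more replicates reach it; inactive means mean below it, under half of replicates reach it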;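 further: signal also drops with host cell toxicity which is not excluded here; 0% = plate median of DMSO wells and 100% = zero luminescence signal; higher percent means less beta-gal luminescence so fewer parasites; stock transfer was 50 nL into about 50 µL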
Beta apoptosis: inhibitors of cytokine-induced beta cell apoptosis, primary screen, luminescence. INS-1E cytokine-induced death, ATP luminescence, 48 h; percent of positive-control rescue, neutral wells zero. protection from apoptosis, % (test concentration not listed). hit rate 0.8% among 300,000;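 active means all replicates at 75% or more, or half of them and the mean; inconclusive means half reach 75% but not the mean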;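 further: 0% = cytokine-treated negative control wells and 100% = positive control rescue; higher means more ATP so stronger rescue from cytokine killing; wells of about 40 µL received 100 nL stock; the first replicate is given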
Starred values were filed as active, the others as inactive; ? = inconclusive; / = not tested or not shown; & = joins results of further samples. Outcome played no part in choosing rows. About 4.3% of those tested had a hit in this group.

nr | Structure | MLL AF4-AF9 inh | Vif TR-FRET | Bfl-1 A1 inh | LANA-H2A inh | RanGTP-Impb inh | Calb FLC | T cruzi repl | Beta apoptosis
1 | O=C1C=C(c2ccccc2)OC(=O)C1C(=O)c1ccccc1 (stereo not given) | 6.3 | -5%&-2% | -2.6 | -1.4 | 5.7 | -5 | -23 | /
2 | COc1ccc(-c2nc(CS(=O)CC(=O)NC3CCCC3)c(C)o2)cc1OC (stereo not given) | -0.5 | 2% | -0.5 | -8.7 | -0.6 | 6 | -15 | 1
3 | CCOc1cccc(-c2c(C(=O)N/N=C/c3sccc3C)nnn2-c2nonc2N)c1 | -1.3 | / | 0.7 | -0.2 | 2.3 | 2 | 6 | /
4 | O=C(Nc1ccc(Cl)cn1)C1CC1 | -1.3 | / | -0.3 | -2.6 | -1.2 | -10 | -5 | -11
5 | COc1cc2c(C(=O)NCc3ccc4c(c3)OCO4)cn(CC(C)C)c(=O)c2cc1OC | / | 3% | 0.7 | -2.7 | 1.2 | -3 | 10 | 8
6 | Cc1ccc(NC(=O)NC2CC(=O)N(c3ccc4c(c3)OCCO4)C2)cc1 (stereo not given) | -0.7 | -4% | 0.3 | -0.3 | ? | 4 | -4 | /
7 | Cc1ccc(N2CC(C(=O)Nc3ccc(S(=O)(=O)N4CCCC4)cc3)CC2=O)cc1 (stereo not given) | / | 1% | 0.1 | -1.3 | 2.4 | -6 | -19 | 45
8 | CCOc1ccccc1NC(=O)C12CC3CC(C1)CC(c1ccc(C)cc1)(C3)C2 | / | -6% | -0.4 | -2.1 | 0.9 | 41 | 33 | 6
9 | O=C(COc1ccc(-c2ccccc2)cc1)N1CCN(C(=O)c2cccs2)CC1 | -2.0 | 7% | -0.1 | -3.0 | -3.6 | -10 | 10 | -1
10 | CC(=O)C(Cc1ccc(Cl)nc1)(Cc1ccc(Cl)nc1)C(C)=O | -0.9 | 2% | 0.9 | 8.2 | -6.5 | 2 | -2 | 1
11 | O=S(=O)(Nc1cccc(Cl)c1)c1cccc(-n2cnnn2)c1 | 1.8 | -4% | -0.2 | 0.7 | / | / | / | 0
12 | Cc1ccc(CNC(=O)c2ccc(N3CCC4(CC3)CC(c3ccccc3)=NO4)c(NC(=O)c3ccco3)c2)cc1 | -10 | / | 0.7 | 2.0 | 0.2 | 16 | 51 | 5
13 | CCOC(=O)c1c(/N=C/c2ccc(C)cc2O)sc2c1CCC2 | -1.2 | / | 2.0 | 1.9 | 3.9 | -3 | 2 | -10
14 | O=C(c1ccccc1)N1CCN(CC2CC=CCC2)CC1 (stereo not given) | / | 4% | 0.2 | 2.2 | -0.3 | -2 | -7 | 4
15 | CCNCc1cc([N+](=O)[O-])ccc1OCC | -1.4 | 15% | 0.5 | 1.2 | -0.2 | -4 | 2 | -4
16 | Cc1ccc(CC(=O)OCC(=O)c2ccc[nH]2)cc1C | -1.5 | / | -1.3 | -1.2 | / | / | / | -4
17 | Oc1ccccc1/C=N/Nc1cc(N2CCCC2)nc(N2CCCC2)n1 | / | / | -1.2 | -0.9 | 29* | 3 | 57* | 16
18 | CCC(=O)c1ccc(OCC(=O)c2ccc3c(c2)NC(=O)CO3)cc1 | 9.3 | -34% | -0.8 | -0.2 | -2.9 | 1 | -10 | 2
19 | COn1c(=O)c(-c2ccc(Cl)cc2)[n+]([O-])c2ccccc21 | / | -2% | -0.1 | -2.0 | 1.4 | / | -22 | 0
20 | COc1cccc(-c2nc(N3CCC(C)CC3)c3ccccc3n2)c1O | / | -4% | ? | 2.7 | -1.1 | -5 | 44 | 12
21 | Cc1ccc(CN2CN(S(=O)(=O)c3cccs3)c3nc4ccccc4nc32)cc1 | / | 19% | -8.4 | -0.4 | -3.1 | 18 | 16 | -5
22 | COc1ccc(S(=O)(=O)N2CCN(C)CC2)cn1 | -1.1 | -3% | 0.0 | 1.2 | / | / | 9 | -1
23 | COCc1cc(/C=N\NC(=O)COc2ccccc2)ccc1OC | -0.1 | / | 0.3 | -7.9 | 0.1 | ? | 5 | 0
24 | Cc1cc(=O)oc2cc3c(cc12)OCCN3 | / | 4% | -0.1 | -0.6 | 97* | -1 | -4 | 6
25 | O=C(Nc1nccs1)C1CCN(S(=O)(=O)c2cccnc2)CC1 | 7.9 | 2% | 0.2 | 0.5 | ? | -9 | 2 | 0
26 | COC(=O)/C(=C\Nc1ccc(Cl)cc1Cl)NC(=O)c1ccc(Cl)cc1Cl | / | -5% | 0.3 | 2.3 | -4.0 | -2 | -1 | 9
27 | CCCc1cc(=O)[nH]c(SCC(=O)NC2CCCCC2)n1 | 0.7 | 3% | 0.0 | -6.0 | -0.1 | -15 | -18 | -2
28 | CC(=O)NCCNS(=O)(=O)c1ccc(C)c([N+](=O)[O-])c1 | -1.5 | 6% | 0.1 | 0.7 | -2.7 | -6 | -10 | -3
29 | CCOC(=O)Nc1ccc2c(c1)N(C(=O)CN)c1ccccc1CC2 | -1.7 | 30% | 0.3 | 5.8 | -2.1 | 6 | 52 | /
30 | CC(C)CCN1C(N(C)C)=NC[C@@H]1C | 2.2 | / | 0.5 | 2.3 | / | / | / | -8
31 | Clc1ccc(OCc2nc3ccccc3[nH]2)cc1 | -1.3 | ? | 1.9 | -2.6 | -3.2 | -9 | -19 | 4
32 | COc1ccc(NC(C)=O)cc1S(=O)(=O)Nc1ccccc1C(=O)N1CCCC1 | 0.6 | / | -2.2 | -2.5 | 3.1 | 13 | -7 | -1
33 | C=CCNc1nc2c(c(=O)[nH]c(=O)n2C)n1CCOc1ccccc1 | 1.6 | 6% | 2.1 | 3.5 | 0.5 | 14 | 5 | 8
34 | Cc1noc(C(=O)Nc2ccc(F)c(Cl)c2)c1Cl | 2.8 | / | -3.5 | -1.3 | -3.0 | -3 | 3 | /
35 | COC(=O)/C(C#N)=C/c1c(N2CCCCCC2)nc2ccccn2c1=O | 16 | 2% | 0.1 | -1.6 | 3.8 | 5 | 13 | 8
36 | CCn1c(C)nc2cc(C(=O)NNC(=S)Nc3ccccc3Cl)ccc21 | / | 4% | -1.3 | 2.3 | 4.1 | -4 | -3 | 3
37 | CCOC(=O)c1sc(NC(=O)c2cccc(S(=O)(=O)N3CCc4ccccc43)c2)c(C#N)c1C | -3.9 | ? | -0.8 | -6.7 | -3.4 | -2 | 3 | 73
38 | CSC1=NSC2=NC(=O)/C(=C/c3coc4ccccc4c3=O)C(=N)N12 | -3.9 | / | -4.2 | 0.3 | / | / | / | -5
39 | O=C(NC(=S)Nc1cc(Cl)ccc1O)c1cccc(Br)c1 | -16 | ? | 0.2 | 2.4 | -0.3 | -4 | -21 | 3
40 | CC(C)OP(=O)(OC(C)C)C(C)NC(=O)Cc1ccccc1 (stereo not given) | -1.1 | -5% | -0.4 | 2.5 | ? | 22 | -2 | -6
41 | CS(=O)(=O)N(CC(=O)N1CCOCC1)c1cccc(Cl)c1Cl | -1.0 | / | 0.2 | 0.4 | 4.3 | -14 | -15 | 1
42 | O=C(O)CCn1cc(/C=C2/NC(=S)N(c3ccccc3)C2=O)c(-c2ccccc2)n1 | / | 2% | -0.3 | 1.0 | -1.1 | 7 | -19 | -9
43 | COc1cc(/C=N\n2nnnc2N)ccc1OCc1ccc(F)cc1 | / | 1% | -1.3 | 3.5 | 1.5 | -29 | -9 | 0
44 | O=C(Nc1ccccc1)Nc1nnc(Cc2ccc([N+](=O)[O-])cc2)s1 | / | ? | -1.0 | 4.4 | -2.4 | 4 | 11 | -5
45 | COCC1CCN(C(=O)c2cc(COc3ccc(F)cc3F)on2)C1 (stereo not given) | -1.1 | -3% | -0.1 | 1.3 | -0.3 | 1 | 4 | 0
46 | CCOC(=O)CC(N)c1cccc([N+](=O)[O-])c1 (stereo not given) | 3.4 | -6% | 0.4 | -2.6 | -3.5 | -5 | -4 | 3
47 | Brc1c(OCCOCCn2cncn2)ccc2ccccc12 | / | -2% | -0.1 | 4.0 | 7.0 | -6 | 30 | 1
48 | O=C(/C=C/c1ccccc1[N+](=O)[O-])Nc1ccc(S(=O)(=O)Nc2ncccn2)cc1 | -2.2 | 5% | 0.3 | -3.1 | 2.6 | -1 | 6 | 0
49 | COc1cc(NC(=O)Cn2c(-c3cncs3)nc3ccccc32)cc(OC)c1OC | / | 2% | -0.3 | 1.4 | 4.1 | -4 | -4 | -4
50 | CCOC(=O)C1CCCN(C(=S)Nc2ccc(F)cc2)C1 (stereo not given) | -3.2 | -3% | 0.5 | -7.0 | -1.4 | -6 | -17 | 2
51 | COc1ccc(-c2ccccc2)c2oc(-c3ccco3)cc(=O)c12 | / | / | -0.5 | -0.7 | -3.9 | 8 | 0 | 2
52 | Cc1cc(C(=O)Nc2ccon2)c(C)o1 | -0.1 | -4% | -0.4 | 3.5 | 1.8 | -4 | -10 | -2
53 | COc1ccc(NC(=O)C(Cc2cc(C)cc(C)c2)C(C)C(=O)O)cc1 (stereo not given) | -2.8 | -5% | -0.8 | -0.6 | -0.3 | 3 | -10 | -3
54 | O=C(O)c1cc(NC(=O)c2cccc(F)c2)cc(NC(=O)c2cccc(F)c2)c1 | -2.0 | 2% | -1.1 | -2.8 | -2.9 | 35 | 0 | -5
55 | Cc1onc(-c2c(F)cccc2Cl)c1C(=O)OCC(=O)N1C(C)CCCC1C (stereo not given) | 0.1 | -6% | -0.3 | -3.2 | / | / | / | 2
56 | COc1ccccc1N(CN1CCCC1=O)C(=O)c1ccccc1F | / | -1% | 1.4 | -0.6 | -8.5 | 22 | -1 | 3
57 | Cc1ccc(C)c(-n2c(SCC(=O)Nc3nonc3C)nnc2-c2ccoc2C)c1 | / | 20% | 2.6 | -4.4 | -4.3 | 0 | 10 | -9
58 | Cc1cccc(NC(=O)CCOc2ccccc2)c1C | -0.9 | 10% | 1.1 | 0.6 | -1.2 | 3 | 1 | 0
59 | COc1cccc(/C=N/NC(=O)COc2cccc3cccnc23)c1O | -1.0 | 7% | 1.4 | -0.6 | -2.1 | -7 | 4 | 0
60 | Cc1cc(C)cc(OCC(=O)Nc2cccc(C(=O)O)c2)c1 | / | 0% | -0.9 | 4.4 | ? | -7 | -39 | -5

Compound profiles (already shown). Order of values: MLL AF4-AF9 inh | Vif TR-FRET | Bfl-1 A1 inh | LANA-H2A inh | RanGTP-Impb inh | Calb FLC | T cruzi repl | Beta apoptosis
Results for O=C1C=C(c2ccccc2)OC(=O)C1C(=O)c1ccccc1 (stereo not given) : 6.3 | -5%&-2% | -2.6 | -1.4 | 5.7 | -5 | -23 | /
Results for COc1cc(/C=N\n2nnnc2N)ccc1OCc1ccc(F)cc1 : / | 1% | -1.3 | 3.5 | 1.5 | -29 | -9 | 0

Screens (PubChem BioAssay)
